From PubChem
Vaccinia inh = blocks a specific stage of Vaccinia orthopoxvirus infection; Vaccinia-infected cells, mCherry/Venus stage reporter fluorescence; stronger effect = lower value; some inactives read as strong as hits; activity change (mCherry), % (concentration not given with the values); 0.01% of 89,000 active; AID 1053133;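 active = mCherry past -33% and 40 or more points under the early reporter, replicates agreeing; inconclusive = past -33% without that gap or agreement; tested in A549 cells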;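 note: scaled between vehicle wells and reference inhibitor wells; 23 nL library stock went into each well; one replicate is shown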
Vaccinia inh Venus = also measured in Vaccinia inh; calls as there; activity change (Venus), %; measured here: Venus reporter, other viral stage;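 negative = less Venus signal; first of two replicates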
* = called active by the depositor; ? = inconclusive; · = not tested or not shown; & = joins results of further samples. A portion of the library. The share of hits here may be higher or lower than overall.

The line under a structure holds: Vaccinia inh, Vaccinia inh Venus
CC(=O)N[C@H]1CC[C@H](CC(=O)NCC2CCCCC2)O[C@H]1CO
 : 18, 16
O=C(Nc1ccccc1)N1CC(=O)N2[C@H](C1)[C@@H](c1ccc(C#CC3CCCC3)cc1)[C@@H]2CO
 : ?, ·
O=C(C1CCCCC1)N1CC(=O)N2[C@@H](CO)[C@@H](c3ccc(Br)cc3)[C@@H]2C1
 : -6, -4
C/C=C/c1ccc([C@H]2[C@@H](C#N)N(c3ncc(CC)s3)[C@@H]2CO)cc1
 : -33, -37
N#C[C@H]1[C@@H](c2ccccc2)[C@@H](CO)N1C(=O)c1ccc2c(c1)OCO2
 : 6, 2
COc1ccc(CN(C)C[C@@H]2Oc3ccc(NC(=O)Nc4ccc(F)cc4)cc3C(=O)N([C@@H](C)CO)C[C@@H]2C)cc1
 : -7, -6
CO[C@H]1CN(C)C(=O)c2cc(NC(=O)C3CC3)ccc2OC[C@H](C)N(C(=O)c2ccccc2)C[C@@H]1C
 : 9, 11
C[C@@H]1CN([C@H](C)CO)S(=O)(=O)c2ccc(C#Cc3ccccn3)cc2O[C@H]1CN(C)Cc1ccc(F)cc1
 : -32, -18
CO[C@@H]1CN(C)C(=O)c2ccc(NS(C)(=O)=O)cc2OC[C@H](C)N(Cc2nccs2)C[C@H]1C
 : 9, 9
CCCNC(=O)N1[C@H](C#N)[C@H](c2ccc(C#Cc3cccc(F)c3)cc2)[C@H]1CO
 : -17, -14
Cc1noc(C)c1S(=O)(=O)N(C)C[C@H]1OCCCC[C@@H](C)Oc2ccc(NC(=O)Nc3ccc(C(F)(F)F)cc3)cc2C(=O)N([C@@H](C)CO)C[C@@H]1C
 : 1, -6
CC(C)NC(=O)N(C)C[C@H]1Oc2c(NS(=O)(=O)c3cn(C)cn3)cccc2C(=O)N([C@@H](C)CO)C[C@@H]1C
 : 14, 10
COc1ccc(NC(=O)Nc2ccc3c(c2)CC(=O)N([C@@H](C)CO)C[C@@H](C)[C@@H](CN(C)S(=O)(=O)c2ccc(C)cc2)O3)cc1
 : -1, 4
C[C@H](CO)N1C[C@H](C)[C@H](CN(C)Cc2ccc(C(F)(F)F)cc2)Oc2ccc(NC(=O)CCN3CCOCC3)cc2C1=O
 : -4, 2
C[C@H](CO)N1C[C@H](C)[C@H](CN(C)C(=O)c2ccccc2F)Oc2cc(C#CCN(C)C)ccc2S1(=O)=O
 : 5, -2
C[C@H]1CN([C@@H](C)CO)C(=O)c2cccc(NC(=O)Nc3ccc(C(F)(F)F)cc3)c2O[C@@H]1CN(C)CC1CC1
 : -6, -3
COCC(=O)N(C)C[C@@H]1Oc2ncc(-c3ccc(C#N)cc3)cc2C(=O)N([C@H](C)CO)C[C@@H]1C
 : 15, 12
O=C(Nc1ccccc1)N1CCCCN2[C@H](C1)[C@H](c1ccc(C#Cc3ccccc3)cc1)[C@@H]2CO
 : -18, -10
Cc1noc(C)c1NC(=O)N(C)C[C@H]1Oc2ccc(NS(C)(=O)=O)cc2C(=O)N([C@H](C)CO)C[C@@H]1C
 : 10, 11
C[C@@H]1CN([C@@H](C)CO)C(=O)Cc2cc(NC(=O)Cn3cnnn3)ccc2O[C@H]1CN(C)C(=O)Nc1ccc2c(c1)OCO2
 : 14, 11
C[C@@H]1CN([C@H](C)CO)S(=O)(=O)c2ccc(C3=CCCC3)cc2O[C@@H]1CN(C)S(=O)(=O)c1cn(C)cn1
 : 22, 9
O=C(C1CC1)N1CC2(C1)[C@H](c1ccccc1)[C@@H](CO)N2C(=O)CC1CC1
 : 8, -1
C[C@H](CO)N1C[C@H](C)[C@@H](CN(C)C(=O)CN2CCOCC2)Oc2cc(C#Cc3cccc(F)c3)ccc2S1(=O)=O
 : ?, ·
CO[C@@H]1CN(C)C(=O)c2ccc(NS(=O)(=O)c3cccc(C)c3)cc2OC[C@H](C)NC[C@@H]1C
 : 0, -4
C[C@H](O)C#Cc1ccc2c(c1)O[C@@H](CN(C)Cc1ccc(-c3ccccc3)cc1)[C@@H](C)CN([C@@H](C)CO)S2(=O)=O
 : ?, ·
COc1ccc(S(=O)(=O)N(C)C[C@H]2Oc3ccc(NC(=O)Cc4cn(C)c5ccccc45)cc3C(=O)N([C@H](C)CO)C[C@H]2C)cc1
 : -5, 0
COc1ccc(NC(=O)N2CCCCN3[C@H](C2)[C@@H](c2ccc(C4=CCCC4)cc2)[C@@H]3CO)cc1
 : -29, -37
CCNC(=O)C[C@@H]1CC[C@@H]2[C@@H](COc3ccc(NC(=O)C4CCCCC4)cc3C(=O)N2C)O1
 : 4, -5
O=S(=O)(c1ccccc1F)N1CCCCN2[C@H](CO)[C@H](c3ccc(-c4ccccc4)cc3)[C@H]2C1
 : ?, ·
O=C(NC[C@H]1[C@H](c2ccccc2)[C@H](CO)N1CC1CCCC1)c1ccncc1
 : 7, 9
COC(=O)N(C)C[C@@H]1OCc2ccccc2-c2c(n(C)c3ccccc23)C(=O)N([C@@H](C)CO)C[C@@H]1C
 : -12, -12
Cc1noc(C)c1NC(=O)Nc1ccc2c(c1)C(=O)N([C@@H](C)CO)C[C@H](C)[C@@H](CN(C)C(=O)Nc1ccc(C(F)(F)F)cc1)O2
 : 5, 2
COc1ccc2c3c(n(C)c2c1)[C@H](CO)N(Cc1ccncc1)CC31CCN(C(=O)NC(C)C)CC1
 : 17, 13
O=C(NCc1ccc(F)cc1)[C@@H]1[C@@H](CO)[C@@H]2Cn3c(cccc3=O)[C@H]1N2Cc1ccncc1
 : 19, 4
C[C@@H]1CCCCO[C@@H](CN(C)C(=O)Cc2ccccc2)[C@H](C)CN([C@H](C)CO)C(=O)c2cc(NC(=O)c3ccncc3)ccc2O1
 : 6, -2
O=C(O)[C@H]1[C@H](CO)[C@H]2Cn3c(ccc(-c4cncnc4)c3=O)[C@H]2N1C(=O)C1CCC1
 : 29, 8
C[C@@H]1CN([C@H](C)CO)C(=O)c2cc(C#CCN(C)C)cnc2O[C@@H]1CN(C)C
 : 13, 13
COc1cccc(CNC(=O)C[C@H]2CC[C@H](NC(C)=O)[C@@H](CO)O2)c1
 : 5, 1
C[C@H](CO)N1C[C@H](C)[C@H](CN(C)S(=O)(=O)c2ccc(Cl)cc2)Oc2ccc(NC(=O)CCC(F)(F)F)cc2CC1=O
 : -24, -20
O=C(C[C@H]1CC[C@@H]2[C@H](COC[C@@H](O)CN2Cc2ccc(Oc3ccccc3)cc2)O1)N1CCc2ccccc2C1
 : ?, ·
O=C(C[C@H]1CC[C@H]2[C@@H](COC[C@H](O)CN2C(=O)Nc2ccc(Cl)c(Cl)c2)O1)NCc1ccncc1
 : ?, ·
C[C@@H]1CCCCO[C@H](CN(C)C(=O)C2CCCCC2)[C@H](C)CN([C@H](C)CO)C(=O)c2cc(NS(=O)(=O)c3ccccc3)ccc2O1
 : ?, ·
C[C@@H]1CCCCO[C@H](CN(C)Cc2ccc(Cl)c(Cl)c2)[C@@H](C)CN([C@@H](C)CO)C(=O)c2cc(NC(=O)Nc3cccc4ccccc34)ccc2O1
 : -8, -5
COc1ccc2c3c(n(C)c2c1)[C@@H](CO)N(CC1CC1)CC31CCN(C(=O)c2cccc(F)c2)CC1
 : -2, -2
C[C@@H]1CCCCO[C@@H](CN(C)C(=O)Nc2ccc(F)cc2)[C@@H](C)CN([C@@H](C)CO)C(=O)c2cc(NC(=O)C3CCCCC3)ccc2O1
 : -26, -14
C[C@H](CO)N1C[C@H](C)[C@H](CN(C)C(=O)Nc2ccccc2)Oc2c(NS(=O)(=O)c3ccccc3)cccc2C1=O
 : -2, 6
O=C(Cc1ccncc1)NCC[C@H]1CC[C@@H](NC(=O)Nc2cccc(F)c2)[C@H](CO)O1
 : 24, 23
Cc1noc(C)c1NC(=O)Nc1ccc2c(c1)C(=O)N(C)[C@@H]1CC[C@H](CC(=O)N[C@@H]3CCN(Cc4ccccc4)C3)O[C@H]1CO2
 : -2, -7
O=C(C[C@@H]1CC[C@@H]2NC[C@H](O)COC[C@H]2O1)Nc1nccs1
 : 4, 15
C[C@@H]1CN([C@H](C)CO)C(=O)Cc2cc(NC(=O)c3ccncc3)ccc2O[C@H]1CN(C)C(=O)Nc1ccc(C(F)(F)F)cc1
 : 0, 1
C[C@H]1CN([C@@H](C)CO)C(=O)c2cccc(NC(=O)c3ccc(-c4nccs4)cc3)c2O[C@H]1CN(C)Cc1ccc(Oc2ccccc2)cc1
 : -21, -18
O=S(=O)(c1ccc(F)cc1)N1CCCCN2[C@@H](CO)[C@@H](c3ccc(C#CC4CCCC4)cc3)[C@@H]2C1
 : -22, -17
COc1ccc(C#Cc2ccc3c(c2)[C@]2(C(=O)N3)[C@H](C(=O)N3CCc4cc(OC)c(OC)cc4C3)[C@H]3C(=O)O[C@H](c4ccccc4)[C@H](c4ccccc4)N3[C@@H]2c2ccc(O)cc2)cc1
 : 8, 14
CO[C@H]1CN(C)C(=O)c2cc(NC(=O)NC(C)C)ccc2OC[C@@H](C)N(Cc2ccc(-c3ccccn3)cc2)C[C@H]1C
 : -20, -24
COc1ccc(NC(=O)Nc2ccc3c(c2)C(=O)N([C@@H](C)CO)C[C@@H](C)[C@@H](CN(C)C(=O)Cc2ccccc2)OCCCC[C@H](C)O3)cc1
 : 5, -2
COc1ccc(NC(=O)N[C@@H]2CC[C@@H](CCNC(=O)c3ccccc3F)O[C@@H]2CO)cc1
 : -3, 5
O=C(c1cnccn1)N1CC(=O)N2[C@H](C1)[C@H](c1ccc(C#CC3CCCC3)cc1)[C@@H]2CO
 : -15, -2
C[C@@H]1CN([C@@H](C)CO)C(=O)CCCn2nncc2CO[C@H]1CN(C)C(=O)Nc1ccc2c(c1)OCO2
 : 16&10, 14&12
N#C[C@H]1[C@@H](c2ccc(C#CC3CCCCC3)cc2)[C@@H](CO)N1C(=O)Cc1ccccn1
 : -31, -18
O=C(NC[C@H]1CC[C@H]2[C@H](CN2C(=O)CN2CCOCC2)O1)NC1CCCCC1
 : 16, 15

Among those listed so far, these contain two or more sulfur atoms.
The line under a structure holds: Vaccinia inh, Vaccinia inh Venus
CO[C@@H]1CN(C)C(=O)c2ccc(NS(C)(=O)=O)cc2OC[C@H](C)N(Cc2nccs2)C[C@H]1C
 : 9, 9
C[C@@H]1CN([C@H](C)CO)S(=O)(=O)c2ccc(C3=CCCC3)cc2O[C@@H]1CN(C)S(=O)(=O)c1cn(C)cn1
 : 22, 9

(further entries)
The line under a structure holds: Vaccinia inh, Vaccinia inh Venus
O=C(O)C[C@H]1C[C@@H]2c3cc(NC(=O)Nc4ccc(F)cc4)ccc3O[C@@H]2[C@H](CO)O1
 : 15, 4
C[C@@H]1CCCCO[C@@H](CN(C)Cc2ccc(Cl)c(Cl)c2)[C@H](C)CN([C@@H](C)CO)C(=O)c2cc(NC(=O)Nc3cccc4ccccc34)ccc2O1
 : 7, 2
C[C@@H]1CN([C@@H](C)CO)C(=O)Cc2cc(NC(=O)Nc3ccc(F)cc3)ccc2O[C@@H]1CN(C)C(=O)NC1CCCCC1
 : 16, 13
COc1ccc(S(=O)(=O)N[C@@H]2C=C[C@H](CC(=O)N3CCC(Cc4ccccc4)CC3)O[C@H]2CO)cc1
 : -20, -8
CCNC(=O)[C@H]1[C@H](CO)[C@H]2Cn3c(ccc(-c4ccccc4)c3=O)[C@H]2N1CC1CC1
 : 14, 9
COc1ccccc1S(=O)(=O)N(C)C[C@@H]1OCc2cnnn2CCCC(=O)N([C@H](C)CO)C[C@@H]1C
 : 8, 4
C[C@@H]1CN([C@@H](C)CO)C(=O)Cc2cc(NC(=O)CCN3CCOCC3)ccc2O[C@@H]1CN(C)Cc1ccc(C(F)(F)F)cc1
 : -20, -12
Cc1ccc(-c2ccc([C@H]3[C@@H](CO)N4CCCCN(S(=O)(=O)c5ccccc5C)C[C@H]34)cc2)cc1
 : ?, ·
O=C(N[C@@H]1CC[C@H](CC(=O)N2CCCCC2)O[C@H]1CO)c1cccc(F)c1
 : -2, -5
C[C@@H]1CCCCO[C@@H](CN(C)Cc2ccc(Cl)c(Cl)c2)[C@H](C)CN([C@H](C)CO)C(=O)c2cc(NC(=O)Nc3ccc4c(c3)OCO4)ccc2O1
 : 2, 12
CO[C@H]1CN(C)C(=O)c2ccc(NC(=O)c3cccc(Oc4ccccc4)c3)cc2OC[C@@H](C)NC[C@@H]1C
 : ?, ·
COc1cccc(-c2ccccc2[C@H]2[C@@H](CO)N(C(=O)Cc3ccccc3)[C@H]2C#N)c1
 : -4, 1
C[C@@H]1CCCCO[C@@H](CN(C)C(=O)Nc2ccc3c(c2)OCO3)[C@H](C)CN([C@@H](C)CO)C(=O)c2cc(NC(=O)Nc3ccc4c(c3)OCO4)ccc2O1
 : 6, 3
Cc1noc(C)c1NC(=O)NCC[C@H]1CC[C@H](NC(=O)Nc2cccc(F)c2)[C@H](CO)O1
 : 4, 12
Cc1noc(C)c1NC(=O)Nc1ccc2c(c1)C(=O)N([C@H](C)CO)C[C@@H](C)[C@H](CN(C)S(=O)(=O)c1cn(C)cn1)OCCCC[C@@H](C)O2
 : 3, 2
Cc1noc(C)c1S(=O)(=O)Nc1ccc2c(c1)CC(=O)N([C@H](C)CO)C[C@@H](C)[C@@H](CN(C)Cc1ccc(C(F)(F)F)cc1)O2
 : -26, -18
CO[C@H]1CN(C)C(=O)c2cc(NC(=O)c3ccc4c(c3)OCO4)ccc2OC[C@H](C)N(CC2CC2)C[C@@H]1C
 : -15, 4

Profiles, looked up by structure. Order of values: Vaccinia inh	Vaccinia inh Venus
CO[C@H]1CN(C)C(=O)c2cc(NC(=O)c3ccc4c(c3)OCO4)ccc2OC[C@H](C)N(CC2CC2)C[C@@H]1C is listed as -15	4
C[C@@H]1CN([C@@H](C)CO)C(=O)Cc2cc(NC(=O)Nc3ccc(F)cc3)ccc2O[C@@H]1CN(C)C(=O)NC1CCCCC1 is listed as 16	13
CCNC(=O)[C@H]1[C@H](CO)[C@H]2Cn3c(ccc(-c4ccccc4)c3=O)[C@H]2N1CC1CC1 is listed as 14	9
COc1ccccc1S(=O)(=O)N(C)C[C@@H]1OCc2cnnn2CCCC(=O)N([C@H](C)CO)C[C@@H]1C is listed as 8	4
C[C@@H]1CCCCO[C@@H](CN(C)Cc2ccc(Cl)c(Cl)c2)[C@H](C)CN([C@@H](C)CO)C(=O)c2cc(NC(=O)Nc3cccc4ccccc34)ccc2O1 is listed as 7	2
